RmlC RmlD mix – mixture blocks RmlC and RmlD coupled enzyme activity; inhibition, % at 5.5 µM; hit rate 0.39% among 110,000; RmlC/RmlD coupled enzyme inhibition, 384-well mixture HTS; in the data active = inhibition above about 30%, passing the limit was not always enough; only retested compounds are shown here; also: strong numbers were not always called active
RmlC RmlD mix retest – further read-out of RmlC RmlD mix, marked with its call; inhibition, %; measured here: mean retest inhibition;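 single compounds in two wells; values far above 100% likely come from compound fluorescence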
Active calls of the source: *; i = inactive; . = no result given; + = active, no number. This is a subset, so the mix of outcomes need not match the whole.

The opening 25 records, to show the layout:
entry	SMILES	RmlC RmlD mix	RmlC RmlD mix retest
1	CN1CCN(/C=N/c2c(C#N)cnn2-c2ccccc2)CC1	40.2	-12.8
2	CCOC(=O)N1CCN(C(=O)c2ccc(CNS(=O)(=O)c3ccc(OC)cc3)cc2)CC1	38.6	9.1
3	O=C(CSc1ncn(-c2ccccc2)n1)N1CCc2ccccc21	i	3.1
4	CCO[C@H]1OC(C(=O)N2CCOCC2)=C[C@@H](c2ccc3c(c2)OCO3)[C@@H]1CCCO	i	-6.4
5	Cc1c(C(=O)Nc2nnc(C(F)(F)F)s2)oc2ccccc12	40.0	8.3
6	Cc1cc2c(c(=O)o1)C(Cc1ccccc1)C(C#N)=C(N)O2 (stereo not drawn)	100.7	-1.0
7	CC1CCN(S(=O)(=O)c2cc(Cl)ccc2Br)CC1	31.1	-14.7
8	Cc1nn(C(C)C(=O)O)c(=O)c2c1sc1ccccc12 (stereo not drawn)	89.0	1.4
9	Cc1ccc(SCc2ccc(C(=O)Nc3cccc([N+](=O)[O-])c3C)cc2)cc1	36.5	-1.6
10	O=Cc1cn(-c2ccccc2)nc1-c1ccc2c(c1)OCCO2	58.6	-8.1
11	COc1cc(C(=O)N2CCN(c3ncnc4sc(C)c(C)c34)CC2)cc(OC)c1OC	48.4	2.4
12	Cc1cc(Br)ccc1NC(=O)CNC(=O)CSc1n[nH]c(N)n1	39.4	-3.8
13	CN(CC(=O)NCc1ccccc1)S(=O)(=O)c1cnc[nH]1	89.3	-1.2
14	CCOC(=O)CC(=O)CSc1nc2c(cc1C#N)CCC2	79.7*	151.7*
15	Cc1oc2c(c1C(=O)NC(Cc1c[nH]c3ccccc13)C(=O)O)CCCC2 (stereo not drawn)	43.3	-12.5
16	CCOc1cc(NC(=O)c2ccccc2C)c(OCC)cc1NC(=O)C1=Cc2ccccc2OC1	90.4	-10.8
17	CC(=O)Nc1cccc(OC(=O)c2ccoc2C)c1	34.8	-5.6
18	CN(C)c1ccc(N=Cc2ccco2)cc1	30.7	0.5
19	COc1ccc(S(=O)(=O)Nc2ccc(S(=O)(=O)N3CCCCC3)cc2)cc1OC	68.1	-6.8
20	COC(=O)c1c(C)[nH]c(C)c1C(=O)c1ccccc1Cc1ccccc1	31.3	-2.4
21	COc1ccc2nc3oc(C(=O)NC4CCN(Cc5ccccc5)CC4)cc3cc2c1	35.0	-14.2
22	CCc1nnc(NC(=O)CSc2nnc(Cc3ccccc3)n2-c2ccc(OC)cc2)s1	43.8	4.4
23	O=C(COc1ccc2c3c(c(=O)oc2c1)CCC3)NC1CCCCC1	95.6	15.3
24	N#Cc1nc(-c2ccccc2F)oc1N1CCCC1	40.5	-20.5
25	COc1cc2c3c(c1)C1(C(=O)N3C(C)(C)C=C2C)C(C#N)=C(N)Oc2cc(O)ccc21 (stereo not drawn)	46.1	-10.7

Results, repeating the preview:
entry	SMILES	RmlC RmlD mix	RmlC RmlD mix retest
1	CN1CCN(/C=N/c2c(C#N)cnn2-c2ccccc2)CC1	40.2	-12.8
2	CCOC(=O)N1CCN(C(=O)c2ccc(CNS(=O)(=O)c3ccc(OC)cc3)cc2)CC1	38.6	9.1
3	O=C(CSc1ncn(-c2ccccc2)n1)N1CCc2ccccc21	i	3.1
4	CCO[C@H]1OC(C(=O)N2CCOCC2)=C[C@@H](c2ccc3c(c2)OCO3)[C@@H]1CCCO	i	-6.4
5	Cc1c(C(=O)Nc2nnc(C(F)(F)F)s2)oc2ccccc12	40.0	8.3
6	Cc1cc2c(c(=O)o1)C(Cc1ccccc1)C(C#N)=C(N)O2 (stereo not drawn)	100.7	-1.0
7	CC1CCN(S(=O)(=O)c2cc(Cl)ccc2Br)CC1	31.1	-14.7
8	Cc1nn(C(C)C(=O)O)c(=O)c2c1sc1ccccc12 (stereo not drawn)	89.0	1.4
9	Cc1ccc(SCc2ccc(C(=O)Nc3cccc([N+](=O)[O-])c3C)cc2)cc1	36.5	-1.6
10	O=Cc1cn(-c2ccccc2)nc1-c1ccc2c(c1)OCCO2	58.6	-8.1
11	COc1cc(C(=O)N2CCN(c3ncnc4sc(C)c(C)c34)CC2)cc(OC)c1OC	48.4	2.4
12	Cc1cc(Br)ccc1NC(=O)CNC(=O)CSc1n[nH]c(N)n1	39.4	-3.8
13	CN(CC(=O)NCc1ccccc1)S(=O)(=O)c1cnc[nH]1	89.3	-1.2
14	CCOC(=O)CC(=O)CSc1nc2c(cc1C#N)CCC2	79.7*	151.7*
15	Cc1oc2c(c1C(=O)NC(Cc1c[nH]c3ccccc13)C(=O)O)CCCC2 (stereo not drawn)	43.3	-12.5
16	CCOc1cc(NC(=O)c2ccccc2C)c(OCC)cc1NC(=O)C1=Cc2ccccc2OC1	90.4	-10.8
17	CC(=O)Nc1cccc(OC(=O)c2ccoc2C)c1	34.8	-5.6
18	CN(C)c1ccc(N=Cc2ccco2)cc1	30.7	0.5
19	COc1ccc(S(=O)(=O)Nc2ccc(S(=O)(=O)N3CCCCC3)cc2)cc1OC	68.1	-6.8
20	COC(=O)c1c(C)[nH]c(C)c1C(=O)c1ccccc1Cc1ccccc1	31.3	-2.4
21	COc1ccc2nc3oc(C(=O)NC4CCN(Cc5ccccc5)CC4)cc3cc2c1	35.0	-14.2
22	CCc1nnc(NC(=O)CSc2nnc(Cc3ccccc3)n2-c2ccc(OC)cc2)s1	43.8	4.4
23	O=C(COc1ccc2c3c(c(=O)oc2c1)CCC3)NC1CCCCC1	95.6	15.3
24	N#Cc1nc(-c2ccccc2F)oc1N1CCCC1	40.5	-20.5
25	COc1cc2c3c(c1)C1(C(=O)N3C(C)(C)C=C2C)C(C#N)=C(N)Oc2cc(O)ccc21 (stereo not drawn)	46.1	-10.7
26	CCOC(=O)C1=C(CSc2nc(-c3ccccc3)ccc2C#N)OC(N)=C(C#N)C1c1cccnc1 (stereo not drawn)	44.6*	44.6*
27	Cc1cc(=O)n2nc(N3CCCC(C(=O)NCc4ccco4)C3)sc2n1 (stereo not drawn)	139.5	8.0
28	CN(C)CCNC(=O)c1ccc(COc2ccc(Cl)cc2Cl)cc1	148.6	-0.9
29	CCOc1cc(C)nc(NCc2ccccc2)n1	48.1	-2.5
30	O=C(CCSc1nc(-c2ccco2)cc(C(F)(F)F)n1)NCCc1ccccc1	67.3	5.6
31	CCCCCCc1cc2cc(-c3nnc(-c4ccccc4OC)o3)c(=O)oc2cc1O	181.3*	.
32	Cc1cccc(NC(=O)Nc2cccc(C#N)c2)n1	79.5	-8.3
33	c1ccc(-n2nnnc2SCc2cn3cccnc3n2)cc1	30.4	27.0
34	CC(=O)c1c(C)[nH]c(C(=O)COc2cc(C)ccc2C(C)C)c1C	40.2	-0.3
35	CCOC(=O)N1CCC(N2C(=O)c3ccccc3C2Nc2ccc3c(C)cc(=O)oc3c2)CC1 (stereo not drawn)	88.8*	47.3*
36	COc1ccc(N2C(=O)[C@@H]3[C@H](C2=O)[C@H]2c4ccccc4C=CN2[C@@H]3C(=O)Nc2ccccc2)cc1	43.6	1.1
37	CCOC(=O)Cn1c(=O)c(-c2ccccc2NCc2ccccc2)nc2ccccc21	54.3	-2.6
38	CCn1c(NCc2c[nH]c3ccccc23)nc2ccccc21	68.8	1.0
39	COc1cc(-c2nnc(-c3ccccc3)o2)cc(OC)c1OC	60.8	-12.4
40	COc1ccc(-c2onc(C)c2-c2ccccc2)c(O)c1	37.2	4.9
41	Cc1cc(Oc2ccccc2)nc(N)n1	32.5	-4.5
42	COC(=O)c1ccccc1NC(=O)c1cc2nc(C3CC3)cc(C(F)(F)F)n2n1	37.1	25.8
43	COc1ccccc1N1CCN(C(=O)CCNS(=O)(=O)c2ccc3c(c2)CCC(=O)N3)CC1	i	4.3
44	Cc1ccc(CNC(=O)C2CCN(S(=O)(=O)c3c(C)noc3/C=C/c3ccco3)CC2)cc1	184.7	3.3
45	O=C(NC(=S)N(Cc1ccccc1)Cc1ccccc1)C1CCCCC1	58.9	-13.4
46	COc1ccc(-c2nnc(SCC(=O)NC(C)c3ccccc3)o2)cc1OC (stereo not drawn)	45.6	0.2
47	CCOP(=O)(OCC)c1nc(-c2ccc(C)cc2)oc1N1CCOCC1	46.7	36.9
48	C/C=C/c1ccc(OCCCNC(C)CC)c(OC)c1 (stereo not drawn)	51.7	-2.8
49	CCc1cc2cc(C(=O)Nc3ccc(C)cc3)sc2s1	52.8	-0.1
50	C/C(=N/NC(=O)c1cccs1)c1ccc(NC(=O)COc2ccc(Cl)cc2)cc1	34.2	3.5

(listing goes on)
entry	SMILES	RmlC RmlD mix	RmlC RmlD mix retest
51	COCc1[nH]nc2c1C(c1ccccc1OC)C(C#N)=C(N)O2 (stereo not drawn)	47.5	-13.0
52	C=CCOc1ccc(C2N3CC4(C)CN2CC(CCC)(C3)C4=O)cc1 (stereo not drawn)	64.2	-8.2
53	CCCCC(CC)C(=O)Nc1ccc(Cl)cn1 (stereo not drawn)	90.6	-5.8
54	COc1ccc(C2C(CC(=O)O)=C(O)C(=O)N2c2ccccc2)cc1 (stereo not drawn)	165.6	-3.1
55	C=CCNC(=O)C1CCN(S(=O)(=O)c2ccc(Br)cc2)CC1	30.2	-11.7
56	O=C(Cn1cnc2scc(-c3ccc(F)cc3)c2c1=O)N1CCOCC1	38.5	2.8
57	COc1ccc(C(=O)N2CCN(c3nnnn3-c3ccccc3)CC2)cc1OC	73.2	-4.2
58	Cc1ccc(NC(C)c2cc(Cl)ccc2O)cc1 (stereo not drawn)	86.4	3.2
59	CCSc1nnc(NC(=O)c2cc(C)oc2C)s1	72.9	4.4
60	CC(C)n1c2ccccc2c2nnc(SCC(=O)OCN3C(=O)c4ccccc4C3=O)nc21	117.4*	39.4*
61	Cc1nn(-c2ccc(F)cc2)c2sc(C(=O)OC3CCOC3=O)cc12 (stereo not drawn)	47.4*	37.4*
62	c1ccc2sc(N3CN(CCN4CCOCC4)CN(c4nc5ccccc5s4)C3)nc2c1	31.5	-0.7
63	COc1ccc(NC(=O)c2ccc(COc3ccccc3)o2)cc1	59.4	-0.6
64	CS(=O)(=O)Nc1ccc(-c2n[nH]c(=S)n2-c2ccccc2)cc1	31.1	10.0
65	COc1ccc(CN(C(=O)CN2C(=O)COc3ccccc32)C2CCCC2)c(OC)c1	31.1	0.5
66	N#C/C(=C\c1ccccc1)C(=O)NC(=O)Oc1ccccc1	42.6	7.6
67	CCOC(=O)c1cc2c(=O)n3cccc(C)c3nc2n(Cc2ccco2)c1=NC(=O)c1ccccc1	36.2*	61.5*
68	COc1ccccc1S(=O)(=O)Cc1ccc(C(=O)N2CCCC2)o1	57.5	4.5
69	N#Cc1c2c(c(NCc3cccnc3)n3c1nc1ccccc13)CCC2	32.7	8.3
70	COc1ccc(-c2nc(C#N)c(N3CCN(c4ccccc4)CC3)o2)cc1	i	-17.2
71	COc1ccc(N2CCN(C(=O)CN(CCc3ccccc3)S(C)(=O)=O)CC2)cc1	53.6	1.6
72	COc1ccc(-c2nc(C#N)c(NCC3CCCO3)o2)cc1OC (stereo not drawn)	42.0*	37.5*
73	CC1=C(C#N)C(c2cccnc2)C2=C(CC(c3ccc(Cl)cc3)CC2=O)N1 (stereo not drawn)	39.2	0.1
74	COc1ccc(OC)c2c(C)cc(NCCN3CCOCC3)nc12	186.0	-9.7
75	CCc1ccccc1N(CC(=O)NCc1ccco1)C(=O)c1snc(C(N)=O)c1N	32.2	0.2
76	O=C(CCc1nc(-c2ccccc2F)no1)N1CCC2(CC1)OCCO2	37.1	-7.9
77	COc1ccc(C2C3=C(CCCC3=O)Nc3c(-c4ccccc4)c(C)nn32)cc1 (stereo not drawn)	162.6	29.2
78	COc1cccc(C(=O)CSc2nnc(-c3cc(OC)c(OC)c(OC)c3)o2)c1	138.3	4.3
79	COc1ccc2[nH]c3c(=O)n(Cc4ccco4)cnc3c2c1	42.8	-5.5
80	COC(=O)c1cc(=O)nc2sc3cc(OC)ccc3n12	71.4	8.6
81	CC(C)OC(=O)CC(=O)CSc1nc2c(cc1C#N)CCCCC2	+	.
82	COc1ccc2nc(Sc3c([N+](=O)[O-])nc(C)n3Cc3ccccc3)[nH]c2c1	74.0	-12.8
83	Cc1ccc2nc(N3CCN(S(=O)(=O)c4ccc(C)c(Cl)c4)CC3)c(C#N)cc2c1	55.9	-30.9
84	CCCCOc1ccccc1NC(=O)c1ccco1	95.8	-6.9
85	CCc1cccc2c(C(=O)CSc3nnc(-c4ccoc4C)n3C)c[nH]c12	91.4	-9.8
86	Cc1cc(N2CCC(C)CC2)nc2cccc(O)c12	43.5	-1.1
87	NC(=O)NC(Cc1ccccc1)c1ccccc1 (stereo not drawn)	67.0	-3.8
88	Cc1ccc(-c2cn3cccnc3n2)cc1NC(=O)c1ccc(Br)o1	69.7*	108.7*
89	CN(CC(=O)N1CCN(c2cccc(Cl)c2)CC1)S(=O)(=O)c1cccs1	90.7	-6.2
90	O=c1ccccn1Cc1c(F)cccc1Cl	i	-4.8
91	COc1cccc(C(=O)N2CCN=C2SCc2cccnc2)c1OC	97.3	-4.9
92	CCCCCc1nnc(NC(=O)C2CCCO2)s1 (stereo not drawn)	93.2	-1.9
93	COc1cc(C)nc(N2CCCC(C(=O)Nc3cccc(Cl)c3Cl)C2)n1 (stereo not drawn)	63.8	3.1
94	Cc1cc(-c2nc3ncccc3o2)ccc1N	68.8*	.
95	O=S(=O)(c1ccccc1)c1cnn2c(C(F)(F)F)cc(-c3ccc(F)cc3)nc12	156.4	78.7
96	Cc1c(C(=O)NCc2ccccc2)cnn1-c1ccccc1	32.1	-0.6

Assay outcomes deposited in PubChem BioAssay by PCMD.
